# UUG fidelity – yeast start codon fidelity modulation; S. cerevisiae UUG-firefly luciferase reporter, luminescence/redox ratio; 350,000 tested, 0.13% active; activity score, % at 18.7 µM;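 active = replicate mean at a twofold rise or more, about +100% in these data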;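 note: firefly luciferase made from a UUG start codon reports start codon fidelity; reporter light over untreated wells divided by growth signal over untreated wells; some hits fall short of that in this replicate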
# HIV Env fusion – HIV envelope-mediated fusion inhibition | HeLa-JRFL Env/CEM21 cell fusion, luciferase | inhibition, % at 12.3 µM | 360,000 tested, 1.1% active | AID 651610;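 active = mean replicate inhibition score of at least 50 and every replicate individually at or above 50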;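 note: 0% = plate neutral controls and 100% = maraviroc near 300 nM; one replicate is shown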
# Numbers without * were called inactive; [ ] = remark or other dose. A portion of the library; rates above refer to the full screens.
cpd	molecule	UUG fidelity	HIV Env fusion
1	C[C@@H]1CN([C@H](C)CO)C(=O)c2cc(/C=C/c3ccccc3)cnc2O[C@@H]1CN(C)C(=O)c1cnccn1	4	5[16.7 µM]
2	C[C@H]1CCCCO[C@H](CN(C)C(=O)Nc2ccc(F)cc2)[C@@H](C)CN([C@@H](C)CO)C(=O)c2cc(NS(=O)(=O)c3ccccc3)ccc2O1	1	33[16.7 µM]
3	COc1cccc(S(=O)(=O)N[C@@H]2CC[C@H](CC(=O)NCc3ccccc3)O[C@H]2CO)c1	-8	5[16.7 µM]
4	COc1ccc(-c2cnc3c(c2)C(=O)N([C@@H](C)CO)C[C@@H](C)[C@H](CN(C)Cc2ccccn2)O3)cc1	-37	10[16.7 µM]
5	C[C@@H](NC(=O)C[C@@H]1C=C[C@@H](NC(=O)C2CCC2)[C@H](CO)O1)c1ccccc1	-22	-22[16.7 µM]
6	C[C@@H]1CN([C@H](C)CO)C(=O)c2cc(C#CC3CC3)cnc2O[C@H]1CN(C)C(=O)Nc1ccccc1	13	-4[16.7 µM]
7	O=C(N[C@H]1CC[C@@H](CCNS(=O)(=O)c2cccc(Cl)c2)O[C@H]1CO)c1ccccc1	-9	-113[16.7 µM]
8	Cc1ccc(S(=O)(=O)Nc2ccc3c(c2)CC(=O)N([C@@H](C)CO)C[C@H](C)[C@H](CN(C)S(=O)(=O)c2cn(C)cn2)O3)cc1	-4	9[16.7 µM]
9	COc1ccc(CN(C)C[C@H]2Oc3ccc(NS(=O)(=O)c4cccs4)cc3C(=O)N([C@H](C)CO)C[C@@H]2C)cc1	-24	-40[16.7 µM]
10	CCCN(C)C[C@@H]1Oc2ncc(C#Cc3ccc(OC)cc3)cc2C(=O)N([C@@H](C)CO)C[C@@H]1C	22	-5[16.7 µM]
11	C[C@@H]1CN([C@H](C)CO)C(=O)c2cc(NC(=O)CCCN(C)C)ccc2O[C@@H](C)CCCCO[C@@H]1CN(C)Cc1ccncc1	-4	12[16.7 µM]
12	COc1cccc(NC(=O)Nc2ccc3c(c2)OC[C@@H](C)NC[C@H](C)[C@@H](OC)CN(C)C3=O)c1	-3	-9[16.7 µM]
13	Cc1ccc(S(=O)(=O)N(C)C[C@H]2OCCCC[C@H](C)Oc3ccc(NS(=O)(=O)c4ccccc4)cc3C(=O)N([C@H](C)CO)C[C@@H]2C)cc1	29	-86[16.7 µM]
14	C[C@H](O)C#Cc1cnc2c(c1)C(=O)N([C@H](C)CO)C[C@H](C)[C@@H](CN(C)Cc1ccccn1)O2	-33	9[16.7 µM]
15	CNC[C@@H]1OCCCC[C@@H](C)Oc2ccc(NC(=O)Cc3ccccc3)cc2C(=O)N([C@H](C)CO)C[C@@H]1C	-3	-12[16.7 µM]
16	CCCC#Cc1ccc2c(c1)O[C@@H](CN(C)S(=O)(=O)c1cccc(F)c1)[C@H](C)CN([C@H](C)CO)S2(=O)=O	-4	24[16.7 µM]
17	COc1ccc(S(=O)(=O)N[C@@H]2CC[C@H](CCNC(=O)CN3CCOCC3)O[C@@H]2CO)cc1	0	-9[16.7 µM]
18	CC(C)NC(=O)Nc1cccc2c1O[C@H](CN(C)S(=O)(=O)c1cn(C)cn1)[C@@H](C)CN([C@H](C)CO)C2=O	-5	-1[16.7 µM]
19	O=C(Nc1ccc(C(F)(F)F)cc1)N[C@@H]1CC[C@@H](CCn2cc(C3(O)CCCC3)nn2)O[C@@H]1CO	-7	-1[16.7 µM]
20	C[C@@H]1CCCCO[C@@H](CN(C)Cc2ccc3c(c2)OCO3)[C@H](C)CN([C@H](C)CO)C(=O)c2cc(NS(=O)(=O)c3ccc(Cl)cc3)ccc2O1	-1	-50[16.7 µM]

# Single values from the entries so far:
# In UUG fidelity, cpd 9 reads -24
# In HIV Env fusion, cpd 7 reads -113[16.7 µM]
# In HIV Env fusion, cpd 16 reads 24[16.7 µM]

# (list continues)
cpd	molecule	UUG fidelity	HIV Env fusion
21	C[C@H](CO)N1C[C@H](C)[C@@H](CN(C)C(=O)CCC(F)(F)F)OCCCC[C@H](C)Oc2ccc(N(C)C)cc2C1=O	14	-45[16.7 µM]
22	COc1cccc(NC(=O)C[C@@H]2CC[C@@H]3[C@@H](COc4ccc(NC(C)=O)cc4C(=O)N3C)O2)c1	0	3[16.7 µM]
23	C[C@H](CO)N1C[C@H](C)[C@@H](CN(C)C(=O)Nc2ccc(F)cc2)OCCCC[C@H](C)Oc2ccc(NS(=O)(=O)c3ccc(Cl)cc3)cc2C1=O	-3	-184[16.7 µM]
24	C[C@@H]1CCCCO[C@@H](CN(C)Cc2ccc(C(=O)O)cc2)[C@H](C)CN([C@@H](C)CO)C(=O)c2cc(NC(=O)Cc3ccccc3)ccc2O1	6	-3[16.7 µM]
25	Cc1cc(C(=O)Nc2cccc3c2O[C@H](CN(C)S(=O)(=O)c2ccc(F)cc2)[C@@H](C)CN([C@@H](C)CO)C3=O)n(C)n1	1	21[16.7 µM]
26	C[C@H](CO)N1C[C@H](C)[C@H](CN(C)S(=O)(=O)c2ccccc2)Oc2cc(Br)ccc2S1(=O)=O	17	78*[16.7 µM]
27	COc1ccc(NC(=O)N[C@@H]2C=C[C@@H](CC(=O)NC3CCCCC3)O[C@@H]2CO)cc1	6	-17[16.7 µM]
28	C[C@@H]1CCCCO[C@H](CN(C)C(=O)C2CCCCC2)[C@H](C)CN([C@@H](C)CO)C(=O)c2cc(NS(=O)(=O)c3cccs3)ccc2O1	3	24[16.7 µM]
29	C[C@H]1CN([C@@H](C)CO)C(=O)c2cc(NC(=O)Nc3cccc4ccccc34)ccc2O[C@@H]1CN(C)C(=O)Nc1ccc2c(c1)OCO2	-20	7[16.7 µM]
30	CCS(=O)(=O)Nc1ccc2c(c1)C(=O)N(C)C[C@@H](OC)[C@H](C)CN(Cc1cccnc1)[C@H](C)CO2	-9	-2[16.7 µM]
31	CCC(=O)N(C)C[C@H]1Oc2cc(C#CC3(O)CCCC3)ccc2S(=O)(=O)N([C@H](C)CO)C[C@@H]1C	0	3[16.7 µM]
32	COc1ccc(S(=O)(=O)Nc2ccc3c(c2)C(=O)N([C@@H](C)CO)C[C@H](C)[C@@H](CN(C)Cc2ccc4c(c2)OCO4)OCCCC[C@H](C)O3)cc1	29	-7[16.7 µM]
33	Cc1cc(C(=O)Nc2cccc3c2O[C@@H](CN(C)CC2CCCCC2)[C@@H](C)CN([C@H](C)CO)C3=O)n(C)n1	-12	-29[16.7 µM]
34	CC(=O)N(C)C[C@@H]1Oc2ncc(/C=C/c3ccccc3)cc2C(=O)N([C@H](C)CO)C[C@@H]1C	-5	15[16.7 µM]
35	C[C@@H]1CCCCO[C@@H](CN(C)Cc2ccc(C(=O)O)cc2)[C@@H](C)CN([C@H](C)CO)C(=O)c2cc(NC(=O)Nc3ccc4c(c3)OCO4)ccc2O1	-1	3[16.7 µM]
36	Cc1noc(C)c1NC(=O)Nc1cccc2c1O[C@H](CN(C)CC1CCCCC1)[C@@H](C)CN([C@@H](C)CO)C2=O	-6	-10[16.7 µM]
37	C[C@@H]1CN([C@@H](C)CO)S(=O)(=O)c2ccc(Br)cc2O[C@H]1CN(C)C(=O)C1CC1	11	25[16.7 µM]
38	CCCN(C)C[C@H]1OCCCC[C@H](C)Oc2ccc(NS(=O)(=O)c3ccccc3)cc2C(=O)N([C@@H](C)CO)C[C@H]1C	7	-1[16.7 µM]
39	C[C@@H]1CN([C@H](C)CO)C(=O)c2cc(NC(=O)c3ccccc3)ccc2O[C@@H](C)CCCCO[C@@H]1CN(C)CC1CCCCC1	50	14[16.7 µM]
40	CC(C)c1cn(CC[C@H]2CC[C@H](NC(=O)C3CCC3)[C@H](CO)O2)nn1	3	18[16.7 µM]
41	O=C(Cc1ccccn1)NCC[C@H]1CC[C@@H](NC(=O)c2ccccc2F)[C@@H](CO)O1	-2	10[16.7 µM]
42	C[C@@H]1CN([C@H](C)CO)C(=O)c2cccc(N(C)C)c2O[C@H]1CN(C)Cc1ccc(C(F)(F)F)cc1	-1	12[16.7 µM]
43	Cc1cccc(NC(=O)Nc2ccc3c(c2)C(=O)N(C)[C@H]2CC[C@H](CC(=O)O)O[C@H]2CO3)c1	4	-24[16.7 µM]
44	CCNC(=O)C[C@H]1CC[C@H]2[C@H](COc3ccc(NC(=O)c4cc(C)on4)cc3C(=O)N2C)O1	2	-7[16.7 µM]
45	COc1cccc(S(=O)(=O)N[C@@H]2CC[C@@H](CCn3cc(-c4ccccn4)nn3)O[C@@H]2CO)c1	-25	-3[16.7 µM]
46	C[C@H](CO)N1C[C@H](C)[C@H](CN(C)C(=O)Nc2ccc(F)cc2)Oc2ccc(NS(=O)(=O)c3cccs3)cc2C1=O	-3	4[16.7 µM]
47	COc1cccc(S(=O)(=O)N[C@H]2CC[C@@H](CC(=O)NCc3ccncc3)O[C@H]2CO)c1	-23	14[16.7 µM]
48	C[C@@H]1CN([C@@H](C)CO)C(=O)c2cc(NC(=O)Nc3ccc(C(F)(F)F)cc3)ccc2O[C@@H](C)CCCCO[C@H]1CN(C)C(=O)c1ccccc1	-21	44[16.7 µM]
49	COCC(=O)N1C[C@H](C)[C@H](OC)CN(C)C(=O)c2cc(NC(=O)NC(C)C)ccc2OC[C@@H]1C	-2	-1[16.7 µM]
50	CC(C)C#Cc1cnc2c(c1)C(=O)N([C@@H](C)CO)C[C@H](C)[C@H](CN(C)C(=O)Nc1ccccc1)O2	12	10[16.7 µM]
51	C[C@H](CO)N1C[C@H](C)[C@@H](CN(C)CC2CC2)Oc2c(NC(=O)Nc3ccc(F)cc3)cccc2C1=O	-2	7[16.7 µM]
52	O=C(Nc1ccc2c(c1)[C@@H]1C[C@H](CC(=O)N3CCOCC3)O[C@@H](CO)[C@@H]1O2)C1CCOCC1	14	21[16.7 µM]
53	C[C@@H]1CN([C@@H](C)CO)C(=O)c2cc(NC(=O)CCC(F)(F)F)ccc2O[C@@H](C)CCCCO[C@@H]1CN(C)S(=O)(=O)c1cn(C)cn1	13	10[16.7 µM]
54	CO[C@H]1CN(C)C(=O)c2ccc(NC(=O)Nc3ccccc3F)cc2OC[C@@H](C)N(C(C)=O)C[C@H]1C	9	-4[16.7 µM]
55	Cc1ccc(S(=O)(=O)Nc2ccc3c(c2)C(=O)N([C@@H](C)CO)C[C@H](C)[C@@H](CN(C)C(=O)Cc2ccccc2)OCCCC[C@H](C)O3)cc1	17	-8[16.7 µM]
56	CC(C)CC#Cc1ccc2c(c1)O[C@H](CN(C)Cc1ccccc1)[C@H](C)CN([C@@H](C)CO)S2(=O)=O	7	33[16.7 µM]
57	COCc1cn(CC[C@@H]2CC[C@H](NC(=O)c3ccncc3)[C@H](CO)O2)nn1	-10	7[16.7 µM]
58	O=C(O)C[C@H]1C[C@H]2c3cc(NC(=O)Nc4ccccc4)ccc3O[C@H]2[C@H](CO)O1	1	0[16.7 µM]
59	CN(C)C(=O)C[C@@H]1C[C@H]2c3cc(NC(=O)NC4CCCCC4)ccc3O[C@H]2[C@@H](CO)O1	3	24[16.7 µM]
60	CC(C)NC(=O)N(C)C[C@H]1Oc2ccc(NC(=O)NC3CCCCC3)cc2CC(=O)N([C@@H](C)CO)C[C@@H]1C	2	7[16.7 µM]
61	C[C@@H]1CN([C@H](C)CO)C(=O)c2cccc(NC(=O)c3cnccn3)c2O[C@@H]1CN(C)S(=O)(=O)c1ccc(Cl)cc1	17	10[16.7 µM]
62	CC(C)C#Cc1ccc2c(c1)O[C@@H](CN(C)Cc1cccnc1)[C@@H](C)CN([C@@H](C)CO)S2(=O)=O	33	-22[16.7 µM]
63	COc1ccc(CN(C)C[C@H]2Oc3c(NC(=O)Nc4ccc(OC)cc4)cccc3C(=O)N([C@@H](C)CO)C[C@@H]2C)cc1	13	-18[16.7 µM]
64	CC(=O)Nc1ccc2c(c1)C(=O)N(C)[C@@H]1CC[C@H](CC(=O)NCc3ccc(F)cc3)O[C@@H]1CO2	3	-3[16.7 µM]
65	COCC(=O)N(C)C[C@H]1Oc2cc(-c3ccc(OC)cc3)ccc2S(=O)(=O)N([C@@H](C)CO)C[C@@H]1C	6	-1[16.7 µM]
66	CO[C@@H]1CN(C)C(=O)c2cc(NS(=O)(=O)c3ccc(F)cc3)ccc2OC[C@@H](C)N(C)C[C@H]1C	3	-15[16.7 µM]
67	C[C@@H]1CN([C@@H](C)CO)C(=O)c2cc(NS(C)(=O)=O)ccc2O[C@@H]1CN(C)CC1CCCCC1	-21	23[16.7 µM]
68	O=C(NCC[C@H]1CC[C@H](NC(=O)c2cccnc2)[C@H](CO)O1)Nc1ccc(F)cc1	203*	-24[16.7 µM]
69	Cc1ccc(S(=O)(=O)N(C)C[C@@H]2OCCCC[C@@H](C)Oc3ccc(NS(=O)(=O)c4ccccc4)cc3C(=O)N([C@H](C)CO)C[C@H]2C)cc1	10	23[16.7 µM]
70	CC(=O)N(C)C[C@@H]1Oc2cc(C#Cc3cccnc3)ccc2S(=O)(=O)N([C@@H](C)CO)C[C@H]1C	13	-8[16.7 µM]
71	C[C@@H]1CCCCO[C@H](CN(C)Cc2ccccc2)[C@@H](C)CN([C@H](C)CO)C(=O)c2cc(NC(=O)Nc3ccccc3)ccc2O1	-6	12[16.7 µM]

# Laid out differently: 4 of the compounds above.
20) C[C@@H]1CCCCO[C@@H](CN(C)Cc2ccc3c(c2)OCO3)[C@H](C)CN([C@H](C)CO)C(=O)c2cc(NS(=O)(=O)c3ccc(Cl)cc3)ccc2O1
  UUG fidelity: -1	HIV Env fusion: -50[16.7 µM]

21) C[C@H](CO)N1C[C@H](C)[C@@H](CN(C)C(=O)CCC(F)(F)F)OCCCC[C@H](C)Oc2ccc(N(C)C)cc2C1=O
  UUG fidelity: 14	HIV Env fusion: -45[16.7 µM]

22) COc1cccc(NC(=O)C[C@@H]2CC[C@@H]3[C@@H](COc4ccc(NC(C)=O)cc4C(=O)N3C)O2)c1
  UUG fidelity: 0	HIV Env fusion: 3[16.7 µM]

23) C[C@H](CO)N1C[C@H](C)[C@@H](CN(C)C(=O)Nc2ccc(F)cc2)OCCCC[C@H](C)Oc2ccc(NS(=O)(=O)c3ccc(Cl)cc3)cc2C1=O
  UUG fidelity: -3	HIV Env fusion: -184[16.7 µM]
